VACV Venus inh – qHTS for Stage-Specific Inhibitors of Vaccinia Orthopoxvirus: Venus Reporter Primary qHTS | Vaccinia virus Venus reporter expression, fluorescence | Potency, µM (series often up to 36.5 µM), for the others: at the highest dose activity change, negative = inhibition, most hits filed as inhibitors | 330,000 tested, 0.46% active; active means well fitted inhibition curve with a large enough effect; inconclusive means small, poorly fitted or top-dose-only effect; inactive means no such curve, though single readings can be large or run the other way; tested in A549 cells; note: nearly all actives have a fitted effect of over 30% in size; inactives centre near -10
Vaccinia mCherry – qHTS for Stage-Specific Inhibitors of Vaccinia Orthopoxvirus: mCherry Reporter Primary qHTS; 310,000 tested, 0.63% active; Potency, µM (highest dose often 36.5 µM), for inactives: at the highest dose activity change, negative = inhibition, actives largely listed as inhibitors; Vaccinia virus mCherry reporter infection, fluorescence; about a quarter of the inactives have no number; AID 720579, 2013; active = well fitted inhibition curve with a large enough effect; inconclusive = small, poorly fitted or top-dose-only effect; inactive = no such curve, though single readings can be large or run the other way; tested in A549 cells; note: nearly all actives have a fitted effect of over 35% in size; inactives centre near -10
* hit, by the source's call; i = inactive; ? = inconclusive; . = no result given; [ ] = dose if it differs, or a comment. % is set by controls: 0 for no effect and ±100 for the full control effect; potency is the fitted concentration of half-maximal effect.

nr	structure	VACV Venus inh	Vaccinia mCherry
1	O=C(NNC(=O)c1ccc(S(=O)(=O)N2CCCCC2)cc1)c1ccc(F)cc1	-4%	i
2	COc1ccc(N(C(=O)Cn2nnc3ccccc32)C(C(=O)NCc2ccccc2)c2ccc(F)cc2)cc1 (stereo not drawn)	-23%	-29%
3	O=C(Nc1ccc(Br)cc1F)C(NS(=O)(=O)c1cccc2nsnc12)c1ccccc1 (stereo not drawn)	-9%	1%
4	CC1=C(C(=O)OC(C)C)C(c2ccc(C)o2)NC(=O)N1 (stereo not drawn)	-12%	-19%[1.46 µM]
5	COc1ccccc1N1CCNC(C)C1=O (stereo not drawn)	-9%	-7%
6	C#Cc1ccc([C@@H]2C=C(C(=O)N3CCN(Cc4ccccc4)CC3)O[C@H](OCC)[C@H]2CCCO)cc1	-12%	i
7	COc1ccc(N2CCN(C(=S)Nc3ccc(S(N)(=O)=O)cc3)CC2)cc1	-28%	-20%
8	CC1CCCCN1S(=O)(=O)CCNC(=O)c1ccccc1 (stereo not drawn)	-10%	i
9	CCN(CC(=O)Nc1ccc(NC(C)=O)cc1)C(=O)CCCN1C(=O)c2ccccc2C1=O	-6%	-16%
10	Cc1nc2nncn2c(NCc2ccc(F)cc2)c1C	?	-13%
11	O=C(COC(=O)c1cc(=O)c2ccccc2o1)NC1CCCCC1	-4%	-1%
12	CCN(CC)C(=O)[C@H]1C[C@H](CC(=O)NCc2ccc(OC)c(OC)c2)C(=O)N2CCc3c([nH]c4cc(-c5ccco5)ccc34)[C@]12C	-29%	-15%
13	NC(=O)COC(=O)c1cccc(S(=O)(=O)N2CCN(c3ccccc3)CC2)c1	-14%	i
14	COc1ccccc1CNC(=O)COC(=O)c1ccc(-n2cnnn2)cc1	-10%	-12%
15	O=c1[nH]c(CCC2CCCC2)nc2ccccc12	?	?
16	O=C(OCC#CCSc1nnc(-c2ccc([N+](=O)[O-])cc2)o1)c1cccs1	?	?
17	COc1ccccc1OCCN(C#N)c1nc(N(C)C)nc(N(C)C)n1	-23%	-4%
18	COCCN1Cc2cccc(C(=O)N3CCN(c4ccccc4)CC3)c2C1=O	3%	-14%
19	COc1ccc(Cl)cc1C(=O)Nn1cnc2ccccc2c1=O	-12%	i
20	COc1ccc(S(=O)(=O)N2CCCC(C(=O)NC3CC3)C2)cc1Cl (stereo not drawn)	-23%	-4%
21	CCc1ccc(OCC(=O)N2CCN(CCc3ccccn3)CC2)cc1	2%	-5%
22	Cc1ccc2[nH]cc(C(=O)CN3CCN(c4ccccn4)CC3)c2c1	-13%	.
23	NC(=O)CSc1nc2ccccc2c(=O)n1CCc1ccccc1	0%	-8%
24	COc1ccc(C2C(C#N)=C(C)NC3=C2C(=O)c2ccccc23)cc1 (stereo not drawn)	7%	2%
25	COc1ccc(Nc2nc(C)cc(C)c2C#N)cc1OC	-18%	i
26	CN(Cc1ccccc1F)c1nc(-c2cccnc2)nc2ccccc12	-22%	-8%
27	Cc1ccc(Cl)cc1NC(=O)N[C@@H](CC(C)C)C(=O)O	2%	i
28	CCCSc1nnc2c(n1)OC(c1ccc(OCC(=O)O)cc1)Nc1ccccc1-2 (stereo not drawn)	-13%	i
29	Cn1c[n+](C)cc1C(O)c1ccccc1 (stereo not drawn)	-8%	.
30	O=C1CN(C(=O)c2cccc(F)c2)C(c2ccc(F)cc2)c2cc(F)ccc2N1 (stereo not drawn)	-17%	-21%

Structural class: those above with a furan ring, fused or not (2)
nr	structure	VACV Venus inh	Vaccinia mCherry
4	CC1=C(C(=O)OC(C)C)C(c2ccc(C)o2)NC(=O)N1 (stereo not drawn)	-12%	-19%[1.46 µM]
12	CCN(CC)C(=O)[C@H]1C[C@H](CC(=O)NCc2ccc(OC)c(OC)c2)C(=O)N2CCc3c([nH]c4cc(-c5ccco5)ccc34)[C@]12C	-29%	-15%

Next section.
nr	structure	VACV Venus inh	Vaccinia mCherry
31	Cc1cc(C)nc(N/N=C2/CCSc3ccc(F)cc32)n1	-1%	-7%
32	CCCS(=O)(=O)NC(=O)C1(C)CCN(C(=O)c2ccccc2F)C1 (stereo not drawn)	-5%	36%[activator]
33	O=C1CCCC2=C1CC(C(=O)OCc1ccccc1)C(=O)N2Cc1ccccc1 (stereo not drawn)	-16%	i
34	COc1ccc(N2CCN(C(CNC(=O)C(=O)NCC3CCCO3)c3ccco3)CC2)cc1 (stereo not drawn)	-4%	?
35	Cc1ccc(OC(C)C(=O)Nc2ccc3c(c2)n(C)c(=O)n3C)cc1C (stereo not drawn)	-17%	-22%
36	O=C(Nc1ccccc1Cl)c1ccccc1	-13%	i
37	ClC(Cl)(Cl)c1nc(N/N=C/c2ccncc2)c2ccccc2n1	-7%	-12%
38	NC(=O)CC(NC(=O)Cc1ccc(Cl)cc1)c1ccc(NC2CCCCCC2)c([N+](=O)[O-])c1 (stereo not drawn)	-9%	i
39	COc1cc(OC)c(NC(=O)c2cn(C3CCCC3)c(=O)c3c2c2ccccc2n3C)cc1Cl	-20%	-22%
40	Cc1cc(C(=O)Nc2ccc3c(c2)OCO3)cs1	-8%	i
41	CSCCC(NC(=O)c1ccccc1)C(=O)NC1CCCC1 (stereo not drawn)	-1%	-5%
42	CCOC(=O)C1CCN(C(=O)c2ccc3c(c2)sc2nc(-c4ccccc4)cn23)CC1	-16%	-9%
43	CCCC(=O)NC(Oc1ccc(OC)cc1)C(Cl)(Cl)Cl (stereo not drawn)	-1%	i
44	CCC(C)(C)NC(=O)CN(Cc1ccco1)C(=O)CCC(=O)Nc1nccs1	-5%	i
45	CCOC(=O)C1CCCN(C(=O)c2cccs2)CC1 (stereo not drawn)	-4%	14%
46	CC(=O)N1N=C(c2ccc(Cl)cc2)CC1c1ccc([N+](=O)[O-])cc1 (stereo not drawn)	-14%	-2%
47	CCOC(=O)c1cnc2c(-c3ccc(Cl)cc3)cnn2c1C	12%	i
48	COc1ccc(NC(=O)C2=C(C)C(=O)OC23CCC(C)CC3)c(OC)c1 (stereo not drawn)	0%	2%
49	CCOCCc1nnc(NC(=O)C(=O)c2cc(C)n(-c3cccc(Cl)c3)c2C)s1	-5%	-7%
50	COc1ccccc1CNC(=O)c1ccc(CSc2nc3ccncc3n2Cc2ccccc2C)cc1	-28%	?
51	Cc1ccc(Nc2nc(-c3c(C)n(C)n(-c4ccccc4)c3=O)c(C)s2)cc1	?	?
52	Cc1cc(O)c(C(=O)c2cnc3c(c2)COc2ccccc2-3)cc1Cl	-2%	2%
53	CCOC(=O)/C(C#N)=C1/CCCCCN1C	-10%	.
54	CCOC(=O)C1=C(COc2ccccc2)NC(=O)NC1c1cccc([N+](=O)[O-])c1 (stereo not drawn)	-8%	?
55	Cc1c(Cl)cccc1NC(=S)N/N=C/c1ccccc1Cl	-20%	-7%
56	Cc1c(O)c2c(=O)n(-c3ccccc3)c(-c3ccccc3)cc2oc1=O	-9%	-12%
57	CN1CCN(C(=O)c2cc(Oc3c(F)c(F)c(F)c(F)c3F)cc(C(=O)N3CCN(C)CC3)c2)CC1	-25%	-25%
58	CC(NC(=O)C1c2ccccc2Oc2ccccc21)C1CCCO1 (stereo not drawn)	-15%	-3%
59	C[C@@H]1CN([C@@H](C)CO)C(=O)c2cc(Br)cnc2O[C@@H]1CN(C)C(=O)C1CCCCC1	-19%	-20%
60	COc1ccc(CCNC(=O)CCC(=O)N2CCN(S(=O)(=O)c3ccc(Cl)cc3)CC2)cc1OC	-17%	-22%
61	CC(C)c1ccc(NC(=O)CSc2ncnc3c2sc2ccccc23)cc1	-9%	-3%
62	Cc1cc(C)c(NC(=O)CCn2c(=O)c3cccn3c3cccnc32)c(C)c1	-6%	-9%
63	Cc1[nH]c2ccccc2c1/C=C/c1ccc2ccccc2n1	54%	-14%
64	O=[N+]([O-])c1ccccc1CCl	-8%	-3%
65	COc1ccccc1N1CCN(C(=O)c2cn(CC(C)C)c(=O)c3c2c2ccccc2n3C)CC1	-11%	-16%
66	CC/C(O)=N\S(=O)(=O)c1ccc(N=NN(C)C)cc1	-6%	-4%
67	O=C1N=c2ccc(Br)cc2=C1c1sc(=S)n(NS(=O)(=O)c2ccccc2)c1O	-8%	-3%
68	c1ccc(-c2cc(NCCN3CCCCC3)c3ccccc3n2)cc1	11µM*	?
69	O=C(O)c1cc2nccc(-c3ccc(F)cc3)n2n1	-13%	i
70	COc1ccc(C(C(=O)Nc2ccc(F)cc2)N2CCN(C(=O)c3ccco3)CC2)cc1 (stereo not drawn)	-13%	-6%
71	O=C1N/C(=C/c2ccc(Br)s2)C(=O)N1c1ccccc1	-18%	i
72	Cc1nc(Cl)c(C(=O)NC(=O)Nc2cccc(C(F)(F)F)c2)c(C)c1[N+](=O)[O-]	-3%	-13%
73	CCOc1ccccc1N1CCN(C(=O)c2c(CC)noc2C)CC1	-7%	i
74	O=C(c1ccccc1)N1CCC(=O)N1c1ccccc1	-3%	i
75	CCCCOc1ccc(NC(=O)C2CC=CCC2C(=O)O)cc1 (stereo not drawn)	-6%	-2%
76	Cc1nn(-c2ccccc2)c(C)c1/C=N/NC(=O)c1ccccc1NS(=O)(=O)c1cccs1	-4%	i
77	CC(C)c1ccc(NC(=O)N2CCC(c3nc4ccccc4o3)CC2)cc1	-26%	?
78	O=[N+]([O-])c1ccc(NN=Cc2ccccc2O)nc1	?	?
79	CCOC(=O)C1=C(O)/C(=C/c2ccc(OCC(=O)O)c(OCC)c2)SC1=Nc1ccccc1	-2%	-14%
80	O=C(CCN1C(=O)c2ccccc2C1=O)NCCCn1ccnc1	-17%	-21%
81	CCCCNC(=O)C(NC(=O)Cc1cc(C(F)(F)F)cc(C(F)(F)F)c1)C(=O)c1ccccc1 (stereo not drawn)	-17%	-27%
82	O=C(c1ccc2c(c1)OCO2)N1CCN(S(=O)(=O)c2ccccc2)CC1	-6%	-4%
83	CCOC(=O)c1[nH]c(=S)[nH]c1C	-7%	i
84	Cc1ccccc1Cn1c(=O)n(Cc2ccco2)c(=O)c2ccccc21	-15%	.
85	CC(=O)N1Cc2ccccc2CC1C(=O)OCC(=O)c1c(N)n(C)c(=O)n(C)c1=O (stereo not drawn)	-13%	-11%
86	Cc1nc2sc(C(=O)OCC(=O)N3c4ccccc4CC3C)c(C)c2c(=O)[nH]1 (stereo not drawn)	-3%	-1%
87	O=C(Cc1cccc(NC(=O)C2CCN(C(=O)C3CC3)CC2)c1)Nc1cccc(C(=O)N2CCCCC2)c1	0%	i
88	Cc1ccc(CN(c2ccc(C(=O)Nc3ccc4c(c3)OCO4)cc2)S(C)(=O)=O)cc1	-18%	i
89	CC(=O)Nc1ccc(NC(=O)CCCSc2nc3ccccc3s2)cc1	-12%	-2%
90	CC12CC(c3ccccc3O1)C(C(=O)N1CCOCC1)C(=O)N2 (stereo not drawn)	-19%	-6%

Some of the entries above, reformatted:
67) O=C1N=c2ccc(Br)cc2=C1c1sc(=S)n(NS(=O)(=O)c2ccccc2)c1O
76) Cc1nn(-c2ccccc2)c(C)c1/C=N/NC(=O)c1ccccc1NS(=O)(=O)c1cccs1
61) CC(C)c1ccc(NC(=O)CSc2ncnc3c2sc2ccccc23)cc1
72) Cc1nc(Cl)c(C(=O)NC(=O)Nc2cccc(C(F)(F)F)c2)c(C)c1[N+](=O)[O-]
74) O=C(c1ccccc1)N1CCC(=O)N1c1ccccc1

assay / entry | 67 | 76 | 61 | 72 | 74
VACV Venus inh | -8% | -4% | -9% | -3% | -3%
Vaccinia mCherry | -3% | i | -3% | -13% | i

The results go on.
nr	structure	VACV Venus inh	Vaccinia mCherry
91	C#Cc1ccc(NC(=O)C2(C)CCN2C(=O)Cc2ccc(-c3ccccc3)cc2)cc1 (stereo not drawn)	-26%	-16%
92	CCC(C)NC(=O)c1cc2cc(S(=O)(=O)N3CCCCC3)ccc2n1C (stereo not drawn)	-25%	i
93	Cc1cc(C)c(C)c(S(=O)(=O)N[C@@H](C)C(=O)OCC(N)=O)c1C	-4%	-18%
94	CC(C)C[C@H](NC(=O)c1nc[nH]c1C(=O)N1CCNCC1)C(=O)OC(C)(C)C	-9%	i
95	NC(=O)CSc1ncc2c(n1)-c1ccccc1N(Cc1ccccc1)S2(=O)=O	2%	-8%
96	COc1ccc(CN(C)C[C@H]2OCCCC[C@@H](C)Oc3ccc(NC(=O)c4ccccc4)cc3C(=O)N([C@H](C)CO)C[C@@H]2C)cc1	-21%	?
97	COc1ccc(N2CCN(C(=O)CSc3nnc(-c4ccc5[nH]c(C)c(C)c5c4)o3)CC2)cc1	-22%	-23%
98	COc1ccccc1CNC(=O)c1ccc(CS(=O)(=O)c2c(Cl)cccc2Cl)o1	-2%	-16%
99	Cc1ccc2nc(NC(=O)CC3Oc4ccccc4NC3=O)sc2c1 (stereo not drawn)	-4%	-7%
100	CC1=CC(C)(C)N=C(Nc2ccc(C)cc2)S1	-25%	-12%
101	CCN(CC)CCNC(=O)C1CCN(S(=O)(=O)c2c(C)noc2/C=C/c2ccccc2F)CC1	-13%[7.34 µM]	-11%[7.34 µM]
102	O=C(NCc1ccc2c(c1)OCO2)C(=O)NCC1OCCN1S(=O)(=O)c1ccc(Cl)cc1 (stereo not drawn)	-27%	-11%
103	CCOc1ccccc1NC(=O)c1cc2c(Cl)nc3ccccc3c2s1	13%	8%
104	FC(F)(F)c1cnc(N2CCCN(C(=S)Nc3ccccc3)CC2)c(Cl)c1	-6%[7.34 µM]	?
105	COc1ccc(N2CCN(C(=O)c3cc4ccc5cccnc5c4[nH]3)CC2)cc1	-9%	-1%
106	CC(=O)Nc1ccc(N/C(N)=N/c2nc(C)cc(C)n2)cc1	-5%	2%
107	Cn1c2c(c(=O)c3ccccc31)CCC(C)(C)O2	-15%	21%

Screening data deposited in PubChem BioAssay by National Center for Advancing Translational Sciences (NCATS).
